# Bioassay records as filed in PubChem BioAssay.
# VDR inhibitor: Inhibitors of the vitamin D receptor (VDR): qHTS; Vitamin D3 receptor (Homo sapiens), P11473; VDR-SRC2-3 peptide fluorescence polarization, 2 h; Potency, µM, for inactives: max response, negative = inhibition, most hits filed as inhibitors; 400,000 compounds, 0.93% hits; AID 504847, 2011; active means well fitted inhibition curve with a large enough effect; inconclusive means small, poorly fitted or top-dose-only effect, or another doubt; inactive means no such curve, though single readings can be large or run the other way; further: series mostly up to about 120 µM
# Target sequence (P11473 whole entry, looked up): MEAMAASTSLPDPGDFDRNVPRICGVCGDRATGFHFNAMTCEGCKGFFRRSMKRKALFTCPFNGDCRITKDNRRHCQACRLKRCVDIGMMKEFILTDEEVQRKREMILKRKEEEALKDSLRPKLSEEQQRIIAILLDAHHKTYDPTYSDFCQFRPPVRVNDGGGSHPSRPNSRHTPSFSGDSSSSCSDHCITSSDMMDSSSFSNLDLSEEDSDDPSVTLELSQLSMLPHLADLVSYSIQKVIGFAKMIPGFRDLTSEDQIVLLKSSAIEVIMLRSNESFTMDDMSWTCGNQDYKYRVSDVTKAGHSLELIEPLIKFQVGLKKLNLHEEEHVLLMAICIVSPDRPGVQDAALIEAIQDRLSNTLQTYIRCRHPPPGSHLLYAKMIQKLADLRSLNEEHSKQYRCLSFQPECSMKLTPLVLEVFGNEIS
#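 After 23 nl compound addition and a short centrifugation, plates sat for 2 hours at ambient temperature; polarization of fluorescence then indicated loss of VDR binding to peptide SRC2-3.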
# Numbers without * were called inactive; ? = inconclusive; & = joins results of further samples. On the % scale 0 is the no-effect control and ±100 the full control effect; potency means the concentration at half of the fitted maximal effect. These rows are one share of the data; the hit share may differ from the screen's.
compound | VDR inhibitor
COc1ccc(S(=O)(=O)N(CCc2ccccc2)CC(=O)Nc2cccc(OC)c2)cc1 | 5%
O=C1NC2(CCN(Cc3ccccc3)CC2)Oc2ccccc21 | -2%
C/C(N)=C(/C#N)C(=O)COC(=O)c1cc(-c2cccc3ccccc23)nc2ccccc12 | -15%
COc1ccc(-c2cc(-c3ccccc3O)[nH]n2)cc1OC | -6%
CCOc1ccccc1/C=N/NC(=O)Cc1csc(Nc2cccc(C(F)(F)F)c2)n1 | -2%
CC(=O)c1ccc(-n2c(CCC(=O)O)ccc2-c2ccccc2)cc1 | 0%
CCn1c(O)c(N=NC(=O)C(O)c2ccccc2)c2ccccc21 (stereo not drawn) | -7%
CN(CC(=O)NCCc1ccc(S(N)(=O)=O)cc1)CC(=O)Nc1ccccc1C(F)(F)F | -20%

# Further records.
compound | VDR inhibitor
O=S(=O)(c1ccc(F)cc1)N(CC(O)Cn1c2ccccc2c2ccccc21)c1ccccc1 (stereo not drawn) | 0%
CC(=O)c1cn(CC(=O)Nc2ccccc2Cl)c2ccccc12 | -13%
CCOC(=O)C1CCN(C(=O)c2ccc(OCC(=O)N3CCOCC3)c(OC)c2)CC1 | -5%
O=C(NCc1ccccc1Cl)c1ccc[nH]1 | -2%
O=C(NCc1ccc(F)cc1)NC(=O)c1ccc(Cl)cc1 | -4%
Cc1ccccc1C(=O)Nc1ccc(S(=O)(=O)N2CCCC2)cc1 | 6%
Cc1ccc(CNC(=O)C2CCCN(Cc3nc(-c4cccc(C)c4)oc3C)C2)cc1 (stereo not drawn) | 3%
Cc1sc2nc(C3CC3)nc(N3CCN(C(=O)c4ccc(Cl)cc4)CC3)c2c1C | -14%

# Remaining list, next part
compound | VDR inhibitor
COc1cccc(Cc2nc3ccccc3nc2SCC(=O)NCc2ccc(C)cc2)c1 | 13%
CCc1ccc(C(=O)COC(=O)C2CCN(c3ccc(C(F)(F)F)cn3)CC2)cc1 | -4%
CNS(=O)(=O)/C=C/c1ccccc1 | -8%
COCCCNC(=O)C1CCC(Cn2c(=O)c3sccc3n(Cc3ccc(F)cc3)c2=O)CC1 (stereo not drawn) | 6%
Cc1c(NC(=O)C(C)OC(=O)c2cccnc2Cl)c(=O)n(-c2ccccc2)n1C (stereo not drawn) | 21%
O=C1CSC(c2ccc([N+](=O)[O-])cc2)N1c1ccccc1F (stereo not drawn) | 3%
CCCCCCCC(=O)Oc1ccc(C(=O)Nc2cc(C)on2)cc1 | 7%
CCC(C)[C@@H](C(=O)NCC1CCC(C(=O)O)CC1)n1nnc2ccccc2c1=O (stereo partly drawn) | -6%

# Continued:
compound | VDR inhibitor
CCc1ccc(NC(=S)N(Cc2cccnc2)Cc2ccco2)cc1 | -3%
O=S(=O)(c1ccccc1Br)N(Cc1ccccc1)Cc1ccco1 | -19%
COc1ccc([N+](=O)[O-])cc1C(=O)Nc1ccc(OCC(=O)N2CCOCC2)cc1 | 0%
O=C(CSc1ccccn1)Nc1ccc2c(c1)OCO2 | 13%
CCOc1ccc(C2NC(=O)c3c(COC)cc(C)nc3N2Cc2ccccc2)cc1OC (stereo not drawn) | 4%
O=S(=O)(c1ccc2c(c1)OCCO2)N1CCNCC1 | -19%
CCc1ccc(NC(=O)Cn2c(=O)ccc3cc(S(=O)(=O)N4CCCC4)ccc32)cc1 | -3%
Cc1ccccc1NC(=O)CSc1nccn1C | 5%

# Further results
compound | VDR inhibitor
COc1ccc2[nH]c(=O)c(CN(C(=O)c3cccnc3)c3ccc(C)c(C)c3)cc2c1 | -7%
C=CCn1c(=N)n(CC(=O)c2ccccc2)c2ccccc21 | -13%
COc1cccc(CNC(=O)CN2C(=O)COc3ccc(S(=O)(=O)N4CCCC4)cc32)c1 | 2%
COc1ccc(-c2csc(NC(=S)NC(=O)/C=C/c3ccco3)n2)cc1Br | 11%
O=C(Nc1ccc(-c2cn3cccnc3n2)cc1)c1ccccc1F | -8%
COc1ccc(-c2c(C)nn3c(N4CCC(C(=O)NCCC(C)C)CC4)cc(C)nc23)cc1OC | -10%
O=C(CSc1nc2ccccc2c(=O)n1CCCN1CCOCC1)Nc1ccc(Br)cc1 | -8%
Cc1cc(=O)n2nc(N3CCC(C(=O)NC(C)c4ccccc4)CC3)sc2n1 (stereo not drawn) | 4%

# (listing goes on)
compound | VDR inhibitor
COc1ccccc1S(=O)(=O)Cc1ccc(C(=O)NCc2ccc(Cl)cc2)o1 | -7%
COc1cccc(/C=N/n2c(N)nc3ccccc32)c1OC | -5%
Cc1cccc(C2Nc3ccccc3C(=O)N2NC(=O)c2ccc([N+](=O)[O-])cc2)n1 (stereo not drawn) | -13%
COC(=O)c1c(C)oc(C)c1S(=O)(=O)Nc1ccc(C(C)C)cc1 | 4%
CC1CCCC(NC2CCCCNC2=O)C1 (stereo not drawn) | -4%
CCc1ccc(-n2c(SCc3ccccc3C)nc3[nH]ncc3c2=O)cc1 | -2%
O=C(CN1C(=O)COc2ccccc21)N(Cc1cccnc1)Cc1ccccc1F | 4%
CC1CC(=O)Nc2ccccc2N1C(=O)Nc1ccc(F)cc1F (stereo not drawn) | ?

# Shown with values ahead of the structure: 2 of the compounds above.
VDR inhibitor | SMILES
11% | COc1ccc(-c2csc(NC(=S)NC(=O)/C=C/c3ccco3)n2)cc1Br
-2% | CCc1ccc(-n2c(SCc3ccccc3C)nc3[nH]ncc3c2=O)cc1

# The results go on:
compound | VDR inhibitor
COc1ccc(OC)c(CN2CCN(C(=O)CCNC(=O)c3ccc(Br)cc3)CC2)c1 | -2%
NC(=O)c1ccccc1OCC(=O)c1ccc(Cl)cc1 | -15%
CN(C)Cc1cc(CCNC(=O)c2ccc(Cl)cc2)ccc1O | 16%
CC(C)NCC(O)COc1ccc(COCCOC(C)C)cc1 (stereo not drawn) | -5%&-17%&-2%&3%
CCS(=O)(=O)c1ccc2c(c1)N(S(C)(=O)=O)CC(C(=O)NCc1ccccc1OC)O2 (stereo not drawn) | 1%
Cc1cc(SCCOc2ccccc2)nc(N)n1 | 1%
CCCCOC(=O)CCN1C(=O)/C(=C2\SC(=S)N(CCC(=O)OCCCC)C2=O)SC1=S | -16%
O=c1c2[nH]c3ccccc3c2nc(SCc2ccccc2F)n1-c1ccc(F)cc1 | 0%

# Remaining list, next part.
compound | VDR inhibitor
O=c1c2ccccc2[nH]c2ccccc12 | -10%
CSc1ccc(-c2nc(CSCC(=O)NCCCN3CCOCC3)c(C)o2)cc1 | -3%
FC(F)(F)c1ccc(-c2csc(-c3ccno3)n2)cc1 | -22%
Cc1ccc(NC(=O)c2sc3nc(C)nc(N4CCN(c5ccccn5)CC4)c3c2C)c(C)c1 | 5%
CCc1ccc(NC(=O)CSc2nc3c([nH]c4ccccc43)c(=O)n2-c2ccc(C)cc2)cc1 | -8%
CS(=O)(=O)c1ccc(C(=O)NCC2(N3CCCCC3)CCCCC2)cc1 | -6%
CCOC(=O)N1CCN(CC(O)COc2c(C)cccc2C)CC1 (stereo not drawn) | 15%
COc1cccc(CCC(=O)Nc2cc3c(cc2C(=O)O)OCCCO3)c1OC | -12%

# The listing continues.
compound | VDR inhibitor
O=C(c1ccco1)N1CCN(C23CC4CC(CC(C4)C2)C3)CC1 | 0%
O=C(CSc1ccc2c(c1)OCCO2)Nc1cccnc1Cl | -1%
Cc1cccc(NC(=O)CSc2cn(CC(=O)N3CCOCC3)c3ccccc23)c1 | 6%
CC1Oc2ccccc2N(CC(=O)NCc2ccccc2)C1=O (stereo not drawn) | 5%
CCOC(=O)c1c(C)[nH]c(C(=O)N2CCN(CC)CC2)c1C | 7%
O=C(C1CCCN(c2ncnc3c2nc2n3CCCCC2)C1)N1CCN(c2cccc(Cl)c2)CC1 (stereo not drawn) | -8%
Cc1cc(N2C(=O)C3CC=CC(C)C3C2=O)no1 (stereo not drawn) | 8%
COC(=O)NC(=S)Nc1ccc(Oc2ccc(Cl)cc2Cl)c(Cl)c1 | 0%

# (list continues)
compound | VDR inhibitor
CCc1ccc(CNC(=O)c2cnc(N3CCCCC3)c3ccccc23)cc1 | 5%
O=S(=O)(c1ccc2ccccc2c1)n1nc(-c2ccco2)nc1NCc1cccc(Cl)c1 | -1%
CCCCCCCCNCCS(=O)(=O)NCc1ccccc1 | -14%
COc1cc(C2=NOC(C(=O)NCc3ccc(F)cc3)C2)cc(OC)c1OC (stereo not drawn) | -2%
O=C(O)C1CCN(S(=O)(=O)c2cccc3cccnc23)CC1 | 2%
Clc1ccc(C[n+]2cc(-c3ccccc3)n3c2CCC3)cc1Cl | -2%
C=CCn1c(=NC(=O)c2ccco2)sc2cc(C(=O)OC)ccc21 | -11%
Cc1ccccc1C(=O)c1cccn1CC(=O)NC(C)c1ccc2c(c1)OCCO2 (stereo not drawn) | -4%

# More results follow.
compound | VDR inhibitor
O=C1CCCC2=C1C(c1ccncc1)n1c(nc3ccccc31)N2 (stereo not drawn) | ?
CN1CCC(N(C)C(=O)c2ccc(Cl)c(S(=O)(=O)N3CCOCC3)c2)CC1 | -29%
CCc1ccc2occ(CC(=O)Nc3sc4c(c3C(=O)OC)CCC4)c2c1 | 12%
Cc1nc(N2CCC3(CC2)OCCO3)c2nnn(Cc3ccccc3F)c2n1 | -3%
COc1ccc(NC(=O)C(=O)c2cn(CC(=O)N3CCCC3)c3ccccc23)cc1 | -1%
Cc1ccc(NC(=O)CSc2cc(=O)n(C)c3ccc(Cl)cc23)c(Br)c1 | -1%
CCOC(=O)CSc1n[nH]c(NC(=O)c2ccccc2)n1 | -6%
CC(C)CCC(C)N=Cc1c(O)n(Cc2ccccc2)c(=O)c2ccccc12 (stereo not drawn) | 4%

# 7 consecutive entries already listed, quoted:
compound | VDR inhibitor
C=CCn1c(=NC(=O)c2ccco2)sc2cc(C(=O)OC)ccc21 | -11%
Cc1ccccc1C(=O)c1cccn1CC(=O)NC(C)c1ccc2c(c1)OCCO2 (stereo not drawn) | -4%
O=C1CCCC2=C1C(c1ccncc1)n1c(nc3ccccc31)N2 (stereo not drawn) | ?
CN1CCC(N(C)C(=O)c2ccc(Cl)c(S(=O)(=O)N3CCOCC3)c2)CC1 | -29%
CCc1ccc2occ(CC(=O)Nc3sc4c(c3C(=O)OC)CCC4)c2c1 | 12%
Cc1nc(N2CCC3(CC2)OCCO3)c2nnn(Cc3ccccc3F)c2n1 | -3%
COc1ccc(NC(=O)C(=O)c2cn(CC(=O)N3CCCC3)c3ccccc23)cc1 | -1%

# (listing goes on)
compound | VDR inhibitor
O=[N+]([O-])c1ccc(N=Cc2ccc(Br)c([N+](=O)[O-])c2)cc1 | -21%
COCCn1cnnc1SCC(=O)Nc1cc(OC)c([N+](=O)[O-])cc1C | 0%
Cc1ccc(NC(=O)CSc2ccc3nnc(-c4ccccn4)n3n2)cc1 | 10%
O=C(N/N=C/c1ccc2c(c1)OCO2)c1cccc2ccccc12 | 5%
C(=N\N(Cc1ccccc1)c1ccccc1)/c1cccnc1 | -12%
CCOc1ccc(N(CC(=O)NCc2ccco2)C(=O)CCC(=O)Nc2ccccn2)cc1 | 14%
O=C(NCCC1=CCCCC1)C1CCCN(S(=O)(=O)c2ccc(F)cc2)C1 (stereo not drawn) | 17%
COc1ccc(CNC(=O)c2ccc3c(=O)n(-c4ccccc4)c(=O)[nH]c3c2)cc1 | -4%

# Next compounds.
compound | VDR inhibitor
O=C(NCc1ccc(F)cc1)C(=O)Nc1nc(C23CC4CC(CC(C4)C2)C3)cs1 | -1%
O=c1[nH][nH]c2ccccc2c1=O | 0%
COc1ccc(CSCC(=O)Nc2ccc(S(=O)(=O)N3CCCCCC3)cc2)cc1 | -1%
CC(C)c1c(O)nc(SCC(=O)N2CCCCC2)[nH]c1=O | -10%
COCCC(=O)N1CCC(Oc2ccc(C(=O)N(C)CCCC3CCCC3)cc2)CC1 | 10%
O=C1CSC(c2cccc([N+](=O)[O-])c2)N1Cc1ccccc1 (stereo not drawn) | 15%
CC1(C)CC(=O)C/C(=N/NC(=O)COc2ccc(Cl)cc2Cl)C1 | -7%
CC(C)NC(=O)c1ccc(CS(=O)(=O)c2ccc(Br)cc2)o1 | -8%

# Next part
compound | VDR inhibitor
O=C1CC(c2cccc(Cl)c2)c2cc3c(cc2N1)CCC3 (stereo not drawn) | -2%
Cc1ccc(C)c(NC(=O)CCN2CCCC(C)C2)c1 (stereo not drawn) | -17%
Cc1nc2cc(OCc3cc(C(=O)NC(C)c4cn(C)nc4C)no3)ccc2s1 (stereo not drawn) | -9%
Cc1ccc(/C=N/n2c(C)cc(C)c(C#N)c2=O)cc1 | 6%
COc1ccc(C(=O)Nc2ncc3c(n2)-c2ccccc2CC3)cc1 | -17%
CCOC(=O)C(=O)N1CCC(C(=O)OCC)CC1 | 8%
Cc1nc2ccccc2n1C1CCN(CC(=O)Nc2ccccc2Br)CC1 | 26%
CCS(=O)(=O)N1CCC(C(=O)Oc2ccc(C(=O)OC)cc2)CC1 | 8%

# (continued)
compound | VDR inhibitor
Cn1cccc1C(=O)OCC(=O)NC1CCS(=O)(=O)C1 (stereo not drawn) | -6%
Nc1ncnc2c1ncn2[C@@H]1O[C@H](CN2CCCS2(=O)=O)[C@@H](O)[C@H]1O | -2%
CCOc1ccc(NC2=C(OC)C(=O)c3ccccc3C2=O)cc1 | ?
O=P(c1ccccc1)(c1ccccc1)C(c1ccccn1)P(=O)(c1ccccc1)c1ccccc1 | 2%
CCC(=O)Nc1cccc(NC(=O)c2ccc(Br)cc2)c1 | -3%
CC1CCN(S(=O)(=O)c2ccc(C(=O)OCc3ccc4c(c3)OCO4)cc2)CC1 | -2%
COC(=O)c1ccccc1N=Nc1c(N)[nH][nH]c1=O | -12%
Cc1cc(-c2ccccc2C(=O)NC2CCCCC2)on1 | -4%

# The results go on:
compound | VDR inhibitor
Cc1cc2cc(CCNS(=O)(=O)c3ccc(Br)cc3)c(=O)[nH]c2cc1C | -9%
CCOc1ccc(NC(=O)c2cccnc2C(=O)O)cc1 | 16%
CCOc1ccc(NC(=O)CN2CCN(CC(=O)Nc3ccc(N(CC)CC)cc3)CC2)cc1 | 15%
CCOc1ccccc1NC(=O)NCc1ccc2c(c1)CCN2C(=O)c1ccccc1 | 4%
CCOc1ccc(-c2c(=O)n(OCC)c3ccccc3[n+]2[O-])cc1 | -2%
